rRNA inh HTS: reduced GFP signal of wild-type E. coli, primary screen, bacterial rRNA inhibitor project, GFP/RFP fluorescence, OD600, single point. E. coli WT GFP vs humanized-ribosome RFP mutants, 24 h; active compounds read low; DMSO median 0, no signal -100. GFP signal change (wild-type ribosome), % (concentration not given with the values). actives 1.6% (n = 350,000). AID 720706, 2013;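 active = significant combined selectivity score with lowered wild-type GFP, culture density cut under 30%, mutant RFP and density less affected; inactive = any of these conditions unmet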; note: one replicate is shown; some compounds called inactive have numbers as strong as hits
Vif A3G: inhibitors of Vif binding to APOBEC3G peptide, primary screen, biochemical, TR-FRET, GST-Vif 1-94, biotin-A3G peptide, dose response retest (AID 1117319). Virion infectivity factor (Human immunodeficiency virus type 1 group M subtype B (isolate …. TR-FRET GST-Vif / biotin-A3G peptide binding; higher % means a stronger effect; test concentration not given here; strong numbers were not always called active. one-dose inhibition, %; IC50 in µM for titrated hits. actives 0.57% (n = 260,000);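 active = above the screen mean plus three standard deviations and confirmed in dose response; inconclusive = results disagree or hit not tested in dose response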;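 note: Vif residues 1-94 fused to GST binding biotinylated APOBEC3G peptide 110-148; 0% = full assay without inhibitor and 100% = GST in place of GST-Vif; retest series ran down from 100 µM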
HNF4A DNA FP: change in binding of human HNF4A to DNA, primary screen, biochemical, fluorescence polarization, FITC-DNA. 1 h. activity change, % at 10 µM. actives 0.3% (n = 360,000). AID 1224865, 2016; in the data active = activity change above about 30%, passing the limit was not always enough;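 note: controls were the assay level and a saturating level of protein; the project sought stronger binding though the title names inhibitors; some compounds called inactive have numbers as strong as hits; positive values seem to mean higher polarization but the record does not say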
Target sequence (P41235 whole entry, looked up): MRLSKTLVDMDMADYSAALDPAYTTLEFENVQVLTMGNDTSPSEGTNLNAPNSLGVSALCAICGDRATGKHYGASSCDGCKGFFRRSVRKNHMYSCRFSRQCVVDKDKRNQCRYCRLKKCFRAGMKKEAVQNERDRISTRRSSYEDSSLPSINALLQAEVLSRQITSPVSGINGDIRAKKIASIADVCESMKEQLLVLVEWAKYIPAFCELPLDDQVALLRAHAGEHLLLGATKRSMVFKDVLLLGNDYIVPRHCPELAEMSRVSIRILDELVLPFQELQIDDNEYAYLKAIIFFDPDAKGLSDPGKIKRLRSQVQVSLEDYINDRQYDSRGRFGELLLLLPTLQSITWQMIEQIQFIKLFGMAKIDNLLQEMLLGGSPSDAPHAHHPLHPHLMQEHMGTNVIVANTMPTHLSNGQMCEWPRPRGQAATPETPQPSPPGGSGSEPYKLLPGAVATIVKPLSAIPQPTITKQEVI
MLL AF4-AF9 inh: inhibitors of AF4 peptide binding to AF9, primary screen, biochemical, AlphaScreen, biotin-AF4 peptide, FLAG-AF9, single point; Protein AF-9 (Homo sapiens), P42568; actives 0.47% (n = 350,000); inhibition, % at 10 µM;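 active = every replicate reaching a set inhibition limit, whatever the replicate mean, cut at about 25% in these data; inconclusive = mean inhibition reaches that limit but some replicates miss it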;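 note: 0% = plate neutral control median and 100% = total signal loss; the record names both 10 and 1 µM as test concentration; the first replicate is given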
Target sequence (P42568 whole entry, looked up): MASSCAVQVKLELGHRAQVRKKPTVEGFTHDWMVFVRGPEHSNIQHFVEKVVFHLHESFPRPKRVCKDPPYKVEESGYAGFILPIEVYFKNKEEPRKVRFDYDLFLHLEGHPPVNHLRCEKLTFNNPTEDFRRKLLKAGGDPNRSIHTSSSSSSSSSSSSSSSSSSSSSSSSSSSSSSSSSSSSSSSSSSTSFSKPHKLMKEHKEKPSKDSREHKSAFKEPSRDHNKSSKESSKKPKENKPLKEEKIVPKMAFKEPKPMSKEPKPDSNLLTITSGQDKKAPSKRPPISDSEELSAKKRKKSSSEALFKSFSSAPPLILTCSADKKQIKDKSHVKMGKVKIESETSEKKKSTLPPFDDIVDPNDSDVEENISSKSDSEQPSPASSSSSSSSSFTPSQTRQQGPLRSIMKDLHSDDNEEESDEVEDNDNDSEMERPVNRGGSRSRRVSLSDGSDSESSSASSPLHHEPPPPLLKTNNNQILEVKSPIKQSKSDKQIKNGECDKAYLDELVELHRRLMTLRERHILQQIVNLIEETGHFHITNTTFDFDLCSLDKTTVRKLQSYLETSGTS
FGF22 binding: binders of human FGF22 protein, primary screen, FGF22 synaptogenesis inhibitor project, biophysical, thermal shift, single point. Fibroblast growth factor 22 (Homo sapiens), Q9HCT0. recombinant FGF22 thermal shift, SYPRO orange fluorescence; percent of sucrose octasulfate shift, DMSO zero. calls only at 9.99 µM. actives 1.5% (n = 340,000). AID 651658, 2012;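 active = melting point raised past a set limit in the mean and every replicate; inconclusive = no clear call; three in four hits are not shown here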
E coli growth: E. coli growth inhibition, primary screen, OD600. Escherichia coli growth, 23 h; active compounds read low. OD600 absorbance (no concentration beside the values). AID 1053175, 2014. actives 0.21% (n = 330,000);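 active = OD600 absorbance below the run mean of sample wells minus 3.6 SD, in any replicate, cut at about 0.56 in these data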;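 note: stock transfer was 300 nL into about 60 µL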
ALR inh: inhibitors of human ALR sulfhydryl oxidase, primary screen, biochemical, H2O2 detection, HRP-luminol luminescence, single point; purified ALR, DTT oxidation; inhibition, % (concentration not given with the values); actives 3.8% (n = 290,000);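 active = mean and each replicate at 75% or more; inconclusive = only one of the two met; inactive = neither met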;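 note: stock transfer was 7.5 nL into about 7.5 µL; 0% = neutral wells and 100% = wells with inactivated enzyme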
rRNA inh HTS OD600: second read-out of rRNA inh HTS, no call of its own (marks repeat the call); OD600 change, %; measured here: OD600 growth;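 optical density of the mix in the first replicate; 0 = DMSO median and -100 = no signal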
rRNA inh HTS RFP: second read-out of rRNA inh HTS, no call of its own (marks repeat the call); RFP signal change, %; measured here: RFP humanized mutant strains;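 first replicate; 0 = DMSO median and -100 = no signal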
Numbers without * were called inactive; i = inactive; ? = inconclusive; / = not tested or not shown; & = joins results of further samples.

SMILES	rRNA inh HTS	rRNA inh HTS OD600	rRNA inh HTS RFP	Vif A3G	HNF4A DNA FP	MLL AF4-AF9 inh	FGF22 binding	E coli growth	ALR inh
COc1c(C)cc(C(=O)C2CCCN(Cc3ccccn3)C2)cc1C (stereo unspecified)	14	5	2.9	-4%	-0.5	-3.6	i	0.65	-5
CC(=NCCN(C)C)c1c(O)n(Cc2ccccc2)c(=O)[nH]c1=O	12	0	5.7	26%	5.0	2.6	i	0.66	0
COc1cc(C(O)CN)ccc1O (stereo unspecified)	9	19	3.9	/	-0.2	-18	i	0.62	25
O=c1c([N+](=O)[O-])cn(O)cc1[N+](=O)[O-]	3	17	-4.1	-1%	-2.0	-4.3	i	/	/
COC(=O)C1=C(c2ccc(OC(F)(F)F)cc2)C[C@@H]2CC[C@H]1N2C(=O)NCc1ccco1	-4	-5	-2.1	/	/	-6.5	/	/	/
O=C(Cc1cccc(C(F)(F)F)c1)N1CCN(CC(=O)N2CCCC2)CC1	/	/	/	7%	-2.8	-2.5	i	0.69	-2
C/C(=N\NC(=O)c1ccccc1O)c1c(O)n(Cc2ccccc2)c(=O)[nH]c1=O	-11	0	9.0	?	5.3	-27	i	/	14
CC(=O)OC1N=C(c2ccc(Cl)cc2)c2cc(Br)ccc2NC1=O (stereo unspecified)	/	/	/	-1%	-0.8	/	/	0.72	0
CCCc1[nH]nc2c1C1(C(=O)N(Cc3ccccc3)c3ccccc31)C(C(=O)OC)=C(N)O2 (stereo unspecified)	/	/	/	?	-0.3	/	/	0.69	-5
CNS(=O)(=O)c1ccc(-c2ccc(C=C3C(=O)NC(=O)NC3=O)o2)cc1	11	6	6.8	/	5.7	-4.4	i	/	88*
C=CCN(CC=C)C(=O)CCN1CC1C (stereo unspecified)	8	11	1.7	-9%	5.7	9.8	/	0.68	/
CC/C(=N\Nc1ccccc1)c1c(O)n(C)c(=O)n(C)c1=O	6	14	0.6	-1%	3.8	5.6	i	0.73	/
O=C1N(c2nncs2)CCN1[N+](=O)[O-]	12	16	-0.5	-5%	-0.9	-0.1	i	0.66	-5
C[C@]12CCC(=O)C[C@@H]1CC[C@@H]1[C@@H]2CC[C@]2(C)[C@@H](O)CC[C@@H]12	-13	-17	-0.9	/	2.3	/	i	0.76	/
O=C(Cc1ccccc1)N1CCCCN2[C@H](C1)[C@H](c1ccc(C#Cc3ccccc3)cc1)[C@@H]2CO	2	9	2.7	/	/	-3.2	i	/	/
Cc1ccsc1CNCCc1ccc(F)cc1	-4	3	2.6	/	-0.5	-3.7	i	0.66	4
CCN(CC)CCN=Cc1c(O)n(C2CCCCCC2)c(=O)[nH]c1=O	/	/	/	8%	12	/	/	0.81	1
COC(=O)C1=C(N)Oc2cc(C)oc(=O)c2C12C(=O)Nc1ccccc12 (stereo unspecified)	-23*	-18*	-3.4*	/	1.2	0.3	i	0.7	-1
FC(F)(F)c1ccc(CNCCc2c[nH]c3ccccc23)cc1	3	0	14	-4%	4.5	2.3	i	0.58	6
COc1ccc(-n2c(CN3CCOCC3)nc3ccccc3c2=O)c(OC)c1	-6	0	0.0	-3%	-1.9	1.3	i	0.68	/
CN(C)c1ccc(NC(=O)CN2C(=O)CN=C(c3ccccc3)c3cc(Cl)ccc32)cc1	-9	-6	-2.9	15%	-1.3	27*	i	0.71	89*
OCC(Br)CBr (stereo unspecified)	4	7	0.4	/	5.8	/	i	0.64	-18
COC(=O)[C@@H]1C[C@]2(C(=O)O)c3ccccc3N(OOSc3ccccc3)[C@@H]2N1C(=O)OC	3	11	-0.5	/	1.4	-2.5	i	/	-9
C=C(C)[C@@H]1C2C(=O)O[C@H]1[C@H]1OC(=O)[C@@]34OC3C[C@]2(O)[C@@]14C (stereo partly specified)	/	/	/	/	2.0	-3.6	i	/	/
CCC(C)c1cnc(CC(C)C)c(=O)n1O (stereo unspecified)	0	4	0.1	/	6.1	-2.1	i	/	/
COc1cc(O)c2c(c1)/C=C/C[C@H](O)[C@H](O)C(=O)CCC[C@H](C)OC2=O	-25*	-5.2*	6.6*	/	6.4	-48	i	/	/
CCCC[N+]12CCC(CC1)C(C(O)(c1ccccc1)c1ccccc1)C2 (stereo unspecified)	2	6	4.9	9%	-5.2	1.4	i	/	/
Cc1ccc2cc3cc(C(=O)N4CCC5(CC4)OCCO5)oc3nc2c1	/	/	/	2%	0.0	/	/	0.75	-3
CN1c2ccccc2Oc2ccccc21	/	/	/	28%	-0.5	/	/	0.68	24
Cc1ccc2occ(CN3CC4CC(C3)c3cccc(=O)n3C4)c(=O)c2c1 (stereo unspecified)	-3	-15	-4.1	-4%	4.8	6.8	i	0.66	3
Cc1ccccc1CN1Cc2cnnn2-c2ccccc2C1C#N (stereo unspecified)	-43	-50	-7.3	0%	0.9	-0.5	i	/	/
O=C(CSc1ccccc1)N1CCC2(CC1)OCCO2	/	/	/	0%	-2.4	/	/	0.73	-10
O=c1[nH]c2ccccc2n1C1CCN(C(c2cccc3ccccc23)c2nnnn2Cc2ccccc2)CC1 (stereo unspecified)	26	15	-1.3	/	-2.1	1.3	i	/	/
CCC(=NCc1cccnc1)c1c(O)n(C2CCCCC2)c(=O)[nH]c1=O	/	/	/	-4%	1.3	/	/	0.7	1
CCOP(=S)(OCC)SCOC(=O)NCC(=O)OC	/	/	/	1%	-0.4	/	/	0.75	-4
CCC(=O)N1[C@@H]2Cn3c(ccc(-c4ccc(F)cc4)c3=O)[C@H]1[C@@H](C(=O)OC)[C@@H]2CO	2	3	-0.6	/	/	0.0	i	/	/
O=Cc1cn(Cc2c(F)cccc2Cl)c2ccccc12	-27*	-14*	-4.7*	-3%	-1.8	4.3	i	0.68	/
COc1ccc(Cc2c(O)[nH]c(=O)[nH]c2=O)c(OC)c1	11	7	-7.8	-13%	1.8	-1.5	i	0.69	0
C[C@]12C=CC(=O)C=C1CC[C@@H]1[C@@H]2CC[C@]2(C)C(=O)CC[C@@H]12	-23*	-7.4*	-9.0*	/	-2.7	-2.9	i	/	/
N#CC12CNCC1CN=N2 (stereo unspecified)	14	12	-2.5	/	1.5	-2.6	i	/	-1
COC(=O)c1cccc(NC(=O)N2C[C@H]3C[C@@H](C2)c2cccc(=O)n2C3)c1	9	4	-7.8	/	-1.7	-0.6	i	0.7	-7
C/C=C/c1ccc([C@H]2[C@H]3CN(C(=O)Cc4ccncc4)CCCCN3[C@H]2CO)cc1	5	0	-0.9	/	/	-6.9	i	/	/
Cc1[nH]c2ccccc2c1CN1CCCCC1	11	21	-2.5	/	-2.5	-6.6	i	/	/
Cc1ccc(OC(=O)N(C)C[C@@H]2OCc3cnnn3CCCC(=O)N([C@H](C)CO)C[C@H]2C)cc1	33&0	11&1	2.2&-1.1	4%	1.4	0.2&0.5	i	/	/
Cc1cccc(C)c1-n1nnnc1C(c1cccs1)N1CCC2(CC1)C(=O)NCN2c1ccccc1 (stereo unspecified)	-4	-1	-4.5	/	3.7	-2.5	/	/	/
CC1=N/C(=C\c2ccc([N+](=O)[O-])cc2)C(=O)N1c1ccc(Cl)cc1	/	/	/	13%	1.3	/	/	0.69	-6
Cc1ncc([N+](=O)[O-])n1CCOc1nonc1N	11	0	-1.4	-1%	3.8	1.0	i	0.65	-1
COc1ccc(NC(=O)N2C[C@@H]3C[C@@H](C2)c2cccc(=O)n2C3)c(OC)c1	-1	7	-13	/	-0.5	-1.2	i	0.7	1
COc1ccccc1CNCCc1cccc(Cl)c1	-13	-17	1.6	-5%	-2.1	3.5	i	/	/
CCOc1ccccc1-n1c(O)c(C=NCc2ccc3c(c2)OCO3)c(=O)[nH]c1=O	/	/	/	0%	-3.2	/	/	0.69	-10
OC[C@H]1[C@H]2c3ccccc3NC[C@H]2N1Cc1cccnc1	3	5	1.4	/	/	-1.3	i	/	/
COc1ccc(-c2csc(NC(=O)COC(=O)Cc3ccccc3)n2)cc1OC	/	/	/	-5%	/	/	/	0.75	0
O=C(Cc1ccccn1)N1CCCCN2[C@H](CO)[C@H](c3ccc(-c4ccccc4F)cc3)[C@@H]2C1	-3	6	-0.2	/	/	-4.6	i	/	/
O=C(c1ccncc1)C12CN3CN(CN(C3)C1)C2	/	/	/	11%	0.2	/	/	0.66	-4
CCCN1CCC(NC2CCC(O)CC2)CC1 (stereo unspecified)	7	6	0.0	-1%	-1.0	-2.2	i	0.66	-7
COC(=O)C1=C(c2cc3ccccc3o2)C[C@@H]2CC[C@H]1N2C(=O)N1CCOCC1	-1	-11	-13	/	-5.2	0.3	i	/	1
O=C1NC(=O)N(CCc2ccc(F)cc2)C(=O)/C1=C\C=C\c1ccccc1	11	8	1.6	4%	1.3	0.8	i	0.73	/
COCCN1C(=O)/C(=C/c2c(OC)cc(OC)cc2OC)C(=O)N(c2ccccc2)C1=O	12	-2	-3.2	-7%	0.2	-0.5	i	0.72	/
COc1ccc(-c2cc(=NCCC(=O)O)c3cc(C)ccc3o2)cc1	-16	-26	-9.8	5%	-2.9	0.7	i	0.69	/
COc1nc(C)nc(NC(=O)NS(=O)(=O)c2ccccc2Cl)n1	/	/	/	/	-4.7	-5.2	i	0.69	-3

Four compounds picked at random from those above:
SMILES	rRNA inh HTS	rRNA inh HTS OD600	rRNA inh HTS RFP	Vif A3G	HNF4A DNA FP	MLL AF4-AF9 inh	FGF22 binding	E coli growth	ALR inh
O=c1c([N+](=O)[O-])cn(O)cc1[N+](=O)[O-]	3	17	-4.1	-1%	-2.0	-4.3	i	/	/
COc1ccc(-c2csc(NC(=O)COC(=O)Cc3ccccc3)n2)cc1OC	/	/	/	-5%	/	/	/	0.75	0
CC(=O)OC1N=C(c2ccc(Cl)cc2)c2cc(Br)ccc2NC1=O (stereo unspecified)	/	/	/	-1%	-0.8	/	/	0.72	0
FC(F)(F)c1ccc(CNCCc2c[nH]c3ccccc23)cc1	3	0	14	-4%	4.5	2.3	i	0.58	6

Remaining list, next part
SMILES	rRNA inh HTS	rRNA inh HTS OD600	rRNA inh HTS RFP	Vif A3G	HNF4A DNA FP	MLL AF4-AF9 inh	FGF22 binding	E coli growth	ALR inh
CCS(=O)(=O)Nc1cccc(C(=C2CCCCC2)c2cnc[nH]2)c1	-27	-40	-2.9	/	5.0	4.7	i	0.71	0
COc1cccc(CN2CCCCC2c2cccnc2)c1 (stereo unspecified)	10	13	3.3	-1%	2.6	3.0	i	0.67	-19
O=C1NC(=O)N(Cc2ccco2)C(=O)/C1=C\c1cccn1CCOc1ccc(Cl)cc1	-6	-1	5.4	?	3.6	-0.2	i	0.69	53
O=C(O)[C@@H]1[C@@H](CO)[C@@H]2Cn3c(ccc(-c4ccccc4F)c3=O)[C@H]1N2C(=O)c1cccnc1	0	-5	-0.5	/	/	1.9	i	/	/
CCC1(c2ccccc2)C(=O)NC(=S)NC1=O	-9	0	-2.3	-5%	-2.4	0.3	i	/	/
CCCC(=O)Nc1ccc(N2CCN(CC)CC2)c(Cl)c1	/	/	/	20%	-1.9	/	/	0.65	/
BrCC(Br)(Br)Br	2	1	-0.4	/	-2.2	/	i	0.59	41

Bioassay records from PubChem BioAssay.

An excerpt; rates above refer to the full screens.
